Screens as filed in PubChem BioAssay.
miR-21 reporter: miR-21 reporter, rising signal; HeLa miR-21 FLuc reporter, luciferase, 48 h; Potency, µM (top dose mostly 38.3 µM), inactives show at the highest dose reporter change, positive = more light; 340,000 tested, under 10 active; AID 2288; active = well fitted rising curve with a large enough effect; inconclusive = small, poorly fitted or top-dose-only effect; inactive = no such curve, though single readings can be large or run the other way;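 further: % of control where 0% means no effect; miR-21 action dims this reporter so a rising signal means less miR-21 action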
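HeLa cells endogenously expressing miR-21, stably carrying CMV-driven firefly luciferase with a downstream miR-21 binding site, 2000 cells/well. Titrations up to approximately 40 uM, 48 hours; luciferase luminescence read.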
Rango dissoc inh: inhibitors of RanGTP-induced Rango-importin beta complex dissociation | 340,000 compounds, 0.071% hits | O95149+P62826 | Biochemical FRET Rango-importin beta, RanGTP-induced dissociation | AID 540253 | Potency, µM (doses to about 46.1 µM), inactives show at the highest dose activity change, negative = inhibition; active means falling FRET ratio curve, often poorly fitted, with flat reads before Ran was added; inconclusive means other falling curves, or compound fluorescence or quenching; inactive means flat or rising ratio curve;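 further: potency means the concentration at half of the fitted maximal effect; % of control where 0% means no effect; nearly all actives have a fitted effect of over 45% in size; -100% = wells without RanGTP and RCC1; the record marks most hits as doubtful in a second field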
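Rango (0.1 uM)–importin beta (0.25 uM) complex; RanGTP-RCC1 trigger; 45 min RT; CFP/YFP FRET read.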
GLA inh pH 4.5: inhibitors of human alpha-galactosidase A at pH 4.5; P06280; purified enzyme, 4-MU-alpha-Gal fluorescence, pH 4.5; activity change, negative = inhibition, % at 105 µM; 230,000 tested, under 10 active; inconclusive = small, poorly fitted or top-dose-only inhibition, or a rising curve; inactive = flat fitted curve, though single readings scatter; no compound was filed as active;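 further: 0% = full activity with enzyme and -100% = basal without enzyme; dose as in the result columns while the protocol names 77 µM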
Target sequence (P06280 whole entry, looked up): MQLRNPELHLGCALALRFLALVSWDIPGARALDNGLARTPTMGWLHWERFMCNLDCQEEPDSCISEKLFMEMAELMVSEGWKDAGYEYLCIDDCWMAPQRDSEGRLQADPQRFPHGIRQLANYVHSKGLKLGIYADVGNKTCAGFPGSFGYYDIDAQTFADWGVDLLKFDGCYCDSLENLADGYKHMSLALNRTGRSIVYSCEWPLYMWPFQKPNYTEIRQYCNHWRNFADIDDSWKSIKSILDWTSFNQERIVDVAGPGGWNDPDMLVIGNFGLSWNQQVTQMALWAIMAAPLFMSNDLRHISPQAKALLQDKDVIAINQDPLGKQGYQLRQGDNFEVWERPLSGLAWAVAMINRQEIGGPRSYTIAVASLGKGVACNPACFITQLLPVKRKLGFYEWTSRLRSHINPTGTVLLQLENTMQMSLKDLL
Rango complex inh: Rango-importin beta binding inhibition; Rango CFP/YFP FRET sensor + importin beta, 45 min; Potency, µM (doses to about 92.2 µM), for the others: at the top dose inhibition of complex formation; 340,000 compounds, 0.031% hits; Q14974; active = rising FRET ratio curve, often small or poorly fitted; inconclusive = mostly compound fluorescence or quenching in the first reads; inactive = flat curves in all reads;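 further: potency means the concentration at half of the fitted maximal effect; 0% = DMSO wells and 100% = buffer wells lacking importin beta; nearly all actives have a fitted effect of over 15% in size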
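FRET biosensor Rango (snurportin 1 IBB between N-terminal EYFP and C-terminal Cerulean), 50 nM in PBS/1 mM DTT/0.02% Tween-20/0.1% BSA, preincubated 5 min RT with compound; 0.125 microM importin beta added, 45 min RT, CFP/YFP FRET ratio read.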
* = called active by the depositor; ? = inconclusive; . = no result given; & = joins results of further samples.

SMILES	miR-21 reporter	Rango dissoc inh	GLA inh pH 4.5	Rango complex inh
COc1ccc(C2CC(=O)C(C=NCCN3CCN(C(=S)Nc4ccccc4)CC3)=C(O)C2)cc1OC (stereo not given)	0%	-6%	-5	-4.7%
Cc1ccc(-c2ccc(CCC(=O)O)n2CC2CCCO2)cc1 (stereo not given)	-4%	-19%	17	?
CCCCN1C(=O)C(=O)N(CC(=O)NC2CCCc3ccccc32)C1=O (stereo not given)	0%	3%	8	-2.3%
Cc1ccc(CNC(=O)C2CCCN(C(=O)N(C)C)C2)cc1 (stereo not given)	0%	-1%	-2	-0.5%
COc1cccc2cc(CC(=O)c3ccccc3)c(=O)oc12	-31%	0%	.	1.6%
COc1ccc(C[C@H]2CN3C(=NC[C@H]3Cc3ccccc3)N2CCNC(=O)c2ccc(C)c(Br)c2)cc1	?	8%	-10	2.5%
COc1ccccc1-c1noc(CCCC(=O)NC2CCCC2)n1	1%	-1%	.	0.6%
COc1ccc(CC(=O)NC2=NCCS2)cc1	-6%	-1%	-5	-0.1%
COc1ccc(S(=O)(=O)N(C)C[C@H]2Oc3ccc(NC(=O)NC(C)C)cc3C(=O)N([C@H](C)CO)C[C@@H]2C)cc1	.	-4%	.	-0.6%
CCOc1cc(S(=O)(=O)NC2CCCC2)ccc1Cl	-8%	4%	-10	5.0%
COc1cc(NC(=O)CSc2nnc3n2C(C)(C)Cc2ccccc2-3)cc(OC)c1	-1%	-8%	-2	0.0%
C#CC(CC)(CC)NC(=S)Nc1ccc(S(N)(=O)=O)cc1	-42%	11%	5	-0.2%
c1ccc2c(c1)OCCOCCOCCO2	0%	1%	0	-3.4%
O=C(OCN1C(=O)c2ccccc2C1=O)C1CCCCC1	-1%	18%	-1	0.4%
O=C(c1ccco1)N(Cc1cccs1)C1CCS(=O)(=O)C1 (stereo not given)	-2%	0%	-1	1.2%
COc1ccc(NC(=O)CCCC2=NS(=O)(=O)c3ccccc3N2)cc1	-7%	1%	-6	-0.7%
COc1ccc(NC(=O)Nc2ccc3nccnc3c2)cc1	-13%	-3%	-4	?
COc1ccc(-n2ccn(CC(=O)Nc3ccc(OC)cc3OC)c(=O)c2=O)cc1	5%	-8%	.	-0.8%
Cc1cccc(C(=O)Nc2cccc(-c3cnc4ccccc4n3)c2)c1	-11%	4%	2	-4.9%
C/C(=N\NC(=O)COc1cc(C)cc(C)c1)c1cccc(NC(=O)C2CCC2)c1	16%	7%	.	5.1%
Cc1ccc(-c2nc3[nH]c(=O)cc(NC(=O)C(C)C)n3n2)cc1	0%	28%	5	-2.5%
CN(C(=O)CSc1nnnn1-c1ccc(Cl)cc1)C1CCS(=O)(=O)C1 (stereo not given)	.	-20%	.	-1.0%
CCOC(=O)c1ccc(Oc2nc(OC)cc(OC)n2)cc1	-7%	-12%	5	1.8%
COc1ccc(C2=NN(S(C)(=O)=O)C(c3cccs3)C2)cc1OC (stereo not given)	-65%	6%	5	3.5%
CN(C)CCN(Cc1ccccc1)c1ccnc(N(C)C)c1C#N	-5%	11%	1	0.3%
CSc1sc(C(=O)NCC2CC2)cc1S(=O)(=O)C(C)C	-5%	-2%	1	-0.3%
Cc1ccc(/C=C/C(=O)N2CCc3ccccc3C2)cc1	-55%	10%	-1	-2.7%
CN(Cc1ccc(Cl)cc1Cl)C(=O)c1cc(=O)c2ccccc2o1	-2%	0%	.	-2.8%
O=S1(=O)NC(=NC2CCCCCC2)c2ccccc21	0%	-15%	2	-2.8%
CCn1nc2cc(C(=O)NCCc3cccs3)ccc2c1OC	-34%	-9%	-5	-1.7%
O=C(c1ccc(Cl)cc1)n1c(NCc2ccccc2)n[nH]c1=S	-7%	9%	2	-2.7%
CC1Cc2nc(SCC(=O)NCc3ccco3)n(Cc3ccccc3)c(=O)c2S1 (stereo not given)	-37%	-16%	0	0.6%
CN(CC(=O)Nc1ccc(S(=O)(=O)N2CCCC2)cc1)Cc1ccc(Cl)cc1	18%	1%	-2	-0.7%
O=C1c2cccc3c([N+](=O)[O-])ccc(c23)C(=O)N1c1ccccn1	?	?	7	?
O=C(NCc1ccc2c(c1)OCO2)C1Cc2ccccc2CN1C(=O)c1ccco1 (stereo not given)	-5%	2%	-5	3.3%
CCN(CC)c1ccc2c(C)c(Cl)c(=O)oc2c1	-14%	?	-1	?
O=C(CN1CCOCC1)OCCCC1CCCCC1	2%	30%	3	1.2%
CCCCNc1c(N)n(CCC)c(=O)[nH]c1=O	-1%	-20%	1	?
CCOC(=O)C1C(c2ccc3c(c2)OCO3)NC(=O)NC1(O)C(F)(F)F (stereo not given)	-1%	-11%	-2	-4.4%
CCOC(=O)c1c(NC(=O)COC(=O)c2ccc(NC(=O)CC#N)cc2)sc(C(=O)NC)c1C	.	-4%	.	?
CCCCC(=O)Nc1nnc(CCOC)s1	0%	-12%	1	1.2%
CCOC(=O)c1c(C)n(C)c2ccc(OC)c(NC(=O)CN3CCCCC3)c12	-3%	-11%	-18	0.2%
Cn1c(SCC(=O)Nc2nccs2)nnc1-c1ccncc1	4%	-21%	-1	1.2%
COc1ccc(CN=C2NC(=O)CC(C(=O)Nc3ccc([N+](=O)[O-])cc3C)S2)cc1 (stereo not given)	-2%	4%	-13	2.1%
CCCN1C(=O)/C(=C2\SC(=S)N(c3c(C)n(C)n(-c4ccccc4)c3=O)C2=O)c2ccccc21	-1%	3%	6	3.4%
CC(=O)N1N=C(c2ccc(Cl)cc2)OC1(C)C	-2%	2%	0	3.3%
C=CCOc1ccc(C2C3=C(CCCC3=O)N(CC(=O)O)C3=C2C(=O)CCC3)cc1OCC	-1%	-27%	.	?
COc1ccc(C2C(C(C)=O)=C(O)C(=O)N2Cc2cccnc2)cc1 (stereo not given)	-11%	11%	-1	-2.8%

An excerpt taken from the entries so far:
SMILES	miR-21 reporter	Rango dissoc inh	GLA inh pH 4.5	Rango complex inh
COc1ccc(CN=C2NC(=O)CC(C(=O)Nc3ccc([N+](=O)[O-])cc3C)S2)cc1 (stereo not given)	-2%	4%	-13	2.1%
CCCN1C(=O)/C(=C2\SC(=S)N(c3c(C)n(C)n(-c4ccccc4)c3=O)C2=O)c2ccccc21	-1%	3%	6	3.4%
CC(=O)N1N=C(c2ccc(Cl)cc2)OC1(C)C	-2%	2%	0	3.3%

(next part)
SMILES	miR-21 reporter	Rango dissoc inh	GLA inh pH 4.5	Rango complex inh
COc1ccc(/C=C2/CCc3ccccc3C2=O)cc1CN1CCOCC1	-57%	-8%	-7	-1.0%
CCOC(=O)c1ccc(NC(=O)NCc2ccc(OC)cc2)cc1	-9%	2%	-1	1.4%
O=C(Cc1cccc(F)c1)Nc1ccc2c(c1)CCC2	-44%	-3%	.	0.0%
CC(=O)Cn1c(=O)oc2ccccc21	0%	-9%	3	0.1%
CC(C)CN(C(=O)COc1ccc(-c2nnco2)cc1)C1CCS(=O)(=O)C1 (stereo not given)	5%	9%	.	-3.2%
Cc1c(Cl)cccc1NC(=O)c1cccc(OC(F)F)c1	-37%	-10%	-10	-3.2%
COc1ccc(-c2cn3cccnc3n2)cc1NC(=O)CC(C)C	1%	-17%	2	-0.4%
COc1ccc(C2=Nn3c(nnc3-c3ccccc3OC)SC2)cc1OC	7%	5%	4	2.4%
CN(Cc1ccccc1)C(=O)c1ccc(NC(=O)Cc2ccc(NC(=O)C3CCN(C(=O)c4ccccc4)CC3)cc2)cc1	.	7%	.	4.9%
COc1ccc(CN2CCN(S(=O)(=O)c3ccc(NC(C)=O)cc3)CC2)cc1	22%	27%	0	2.3%
O=C(N/N=C/c1ccccc1)NC1CCCCC1	-59%	-1%	0	-0.6%
COc1cccc2cc(C(=O)C3=C(O)C(=O)N(c4cc(C)on4)C3c3cccs3)oc12 (stereo not given)	-4%	?	.	?
CC1CN(C(=O)c2ccc(Oc3ccccc3)cc2)CC(C)O1 (stereo not given)	0%	2%	-7	1.2%
Cc1ccccc1C(=O)Nc1ccc(N2CCOCC2)nc1	-41%	-4%	4	-1.1%
O=C1C2C(c3ccccc3)C=CC(c3ccccc3)C2C(=O)N1C1CCCCC1 (stereo not given)	1%	-4%	4	0.6%
Cc1cc(N)n(Cc2cccs2)n1	5%	8%	1	-2.1%
Cc1ccc(N2C(=O)C(Cl)=C(N3CCOCC3)C2=O)cc1Cl	6%	5%	-6	-0.3%
CC(C)C[C@@H](NC(=O)[C@H]1CCCN1C(=O)Cc1ccccc1)C(N)=O	-8%	7%	.	-1.0%
COc1cc(NC(=O)c2cccs2)c(C(=O)OCC(=O)NC(=O)NC(C)(C)C)cc1OC	0%	-11%	-10	-2.4%
O=C(Cn1cnc2ccccc2c1=O)c1ccccc1	-33%	-1%	4	-8.2%
FC(F)(F)c1cccc(OCc2nnc3n2CCC3)c1	0%	-1%	5	0.0%
Cc1nc2cccc(C(=O)NC3CCCCC3)c2o1	-4%	-5%	-9	-0.9%
COC(=O)c1ccc(-n2cncn2)c(F)c1	-1%	-5%	-19	0.0%
Cc1cccc(CSc2cccc3cccnc23)c1	?	8%	0	1.8%

Looked up by structure from the list above, 6 records:
SMILES	miR-21 reporter	Rango dissoc inh	GLA inh pH 4.5	Rango complex inh
Cc1cc(N)n(Cc2cccs2)n1	5%	8%	1	-2.1%
Cc1cccc(CSc2cccc3cccnc23)c1	?	8%	0	1.8%
CC(C)C[C@@H](NC(=O)[C@H]1CCCN1C(=O)Cc1ccccc1)C(N)=O	-8%	7%	.	-1.0%
O=C1C2C(c3ccccc3)C=CC(c3ccccc3)C2C(=O)N1C1CCCCC1 (stereo not given)	1%	-4%	4	0.6%
Cc1ccc(N2C(=O)C(Cl)=C(N3CCOCC3)C2=O)cc1Cl	6%	5%	-6	-0.3%
Cc1nc2cccc(C(=O)NC3CCCCC3)c2o1	-4%	-5%	-9	-0.9%

New compounds follow.
SMILES	miR-21 reporter	Rango dissoc inh	GLA inh pH 4.5	Rango complex inh
N#CC[C@H](Cc1ccccc1)N1CC[C@@H](NC(=O)OCc2ccccc2)CCC1=O	1%	-4%	.	0.7%
CCn1cc(C(=O)NCc2cccs2)c(=O)c2ccc(C)nc21	2%	3%	6	-0.1%
CCCCSCc1ccc(C(=O)O)o1	-8%	17%	-3	-1.2%
COCCNC(=O)C1Nc2ccc(OC(F)(F)F)cc2C2C=CCC12 (stereo not given)	.	-16%	.	-2.0%
COc1cc(-c2nn3c(-c4cccc(C)c4)nnc3s2)cc(OC)c1OC	-10%	1%	3	2.6%
O=C(Cc1ccccc1)NNC1CC(=O)N(c2ccc(Br)cc2)C1=O (stereo not given)	-4%	-2%	-2	-0.8%
CC(=O)NC(=O)COC(=O)c1ccc2ncsc2c1	-1%	0%	2	-0.4%
CS/C(Nc1cc(Cl)ccc1Cl)=C(/C#N)C(=O)c1ccco1	7%	20%	-15	7.3%
O=C(CSc1nc2ccccc2s1)N1c2ccccc2Sc2ccccc21	4%	-15%	4	2.5%
COc1cc(C(=O)NCC(c2ccco2)N2CCc3ccccc32)cc(OC)c1OC (stereo not given)	.	-16%	.	-0.4%
Cc1nnc2nc(-c3ccccc3)nc(-c3ccccc3)n12	-5%	4%	-7	2.0%
COc1cc2c(cc1OC)C(COc1ccc3c(C)cc(=O)oc3c1)N(C(=O)c1ccco1)CC2 (stereo not given)	-13%	16%	-1	-0.4%
CCN(CC)CCSc1nc2ccccc2c(=S)n1-c1ccccc1	-12%	36%	-10	3.5%
CCOCCCNC(=O)C(c1ccc(OC)cc1)N(Cc1cccs1)C(=O)c1ccccc1O (stereo not given)	4%&13%	-19%	-7	3.7%
O=C(Cn1cnc2cc(Cl)ccc2c1=O)Nc1ccc2c(c1)OCO2	-3%	-9%	-16	1.5%
CCOc1ccc(Cl)cc1/C=N/NC(=O)CNC(=O)c1ccccc1	1%	-1%	0	-0.5%
Cc1cc(Cl)ccc1OCC(=O)Nc1ccccc1C(=O)N1CCOCC1	2%	-7%	.	-1.1%
CCN(c1ccccc1)S(=O)(=O)c1ccc(Cl)c(NC(=O)CSc2nnc(C)s2)c1	-2%	-7%	4	3.0%
O=C1NC(=S)N/C1=C\c1ccc(N2CCOCC2)cc1	-94%	8.2µM*	0	?
COc1cccc(-c2noc(-c3cccs3)n2)c1	-47%	-14%	3	-3.4%

The list is partial, so the mix of outcomes need not match the whole.
